# Source: PubChem BioAssay (several laboratories)
# Calb FLC: affects C. albicans growth with fluconazole. 300,000 compounds, 0.57% hits. growth inhibition, % (concentration not given with the values). C. albicans CaCi-2 (fluconazole-resistant clinical isolate) + fluconazole, Alamar Blue growth, 48 h;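 active means most replicates above 75%; inconclusive means exactly half above 75%; inactive means most below 75%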;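 further: all wells also contain fluconazole at 8 µg/ml as a sub-toxic cotreatment; 0% = median of DMSO wells and 100% = median of geldanamycin control wells; wells of about 8 µL received 7.5 nL stock; the first replicate is given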
# T cruzi repl: blocks replication of Trypanosoma cruzi | inhibition, % (test concentration not listed) | T. cruzi beta-gal in NIH3T3, luminescence, 90 h | 300,000 compounds, 1.4% hits;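 active means mean inhibition across valid replicates above about 55%, limit read from the data; inconclusive means mean below that limit but half or more replicates reach it; inactive means mean below it, under half of replicates reach it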;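 further: signal also drops with host cell toxicity which is not excluded here; 0% = plate median of DMSO wells and 100% = zero luminescence signal; higher percent means less beta-gal luminescence so fewer parasites; stock transfer was 50 nL into about 50 µL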
# LANA-H2B inh: blocks KSHV LANA binding to histone H2A/H2B | cell-free LANA-H2A/H2B peptide, fluorescence polarization | 320,000 compounds, 0.6% hits | AID 2629 | inhibition, % (concentration not given with the values) | Q9QR71; in the data active means inhibition mostly above about 10%, no sharp cut-off; inactive means mostly below about 6.7%;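 further: stock transfer was 7.5 nL into about 10 µL; 0% = median of vehicle wells and 100% = median of positive control wells; one replicate is shown; the record names a cut of 25% in any replicate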
# Target sequence (Q9QR71 whole entry, looked up): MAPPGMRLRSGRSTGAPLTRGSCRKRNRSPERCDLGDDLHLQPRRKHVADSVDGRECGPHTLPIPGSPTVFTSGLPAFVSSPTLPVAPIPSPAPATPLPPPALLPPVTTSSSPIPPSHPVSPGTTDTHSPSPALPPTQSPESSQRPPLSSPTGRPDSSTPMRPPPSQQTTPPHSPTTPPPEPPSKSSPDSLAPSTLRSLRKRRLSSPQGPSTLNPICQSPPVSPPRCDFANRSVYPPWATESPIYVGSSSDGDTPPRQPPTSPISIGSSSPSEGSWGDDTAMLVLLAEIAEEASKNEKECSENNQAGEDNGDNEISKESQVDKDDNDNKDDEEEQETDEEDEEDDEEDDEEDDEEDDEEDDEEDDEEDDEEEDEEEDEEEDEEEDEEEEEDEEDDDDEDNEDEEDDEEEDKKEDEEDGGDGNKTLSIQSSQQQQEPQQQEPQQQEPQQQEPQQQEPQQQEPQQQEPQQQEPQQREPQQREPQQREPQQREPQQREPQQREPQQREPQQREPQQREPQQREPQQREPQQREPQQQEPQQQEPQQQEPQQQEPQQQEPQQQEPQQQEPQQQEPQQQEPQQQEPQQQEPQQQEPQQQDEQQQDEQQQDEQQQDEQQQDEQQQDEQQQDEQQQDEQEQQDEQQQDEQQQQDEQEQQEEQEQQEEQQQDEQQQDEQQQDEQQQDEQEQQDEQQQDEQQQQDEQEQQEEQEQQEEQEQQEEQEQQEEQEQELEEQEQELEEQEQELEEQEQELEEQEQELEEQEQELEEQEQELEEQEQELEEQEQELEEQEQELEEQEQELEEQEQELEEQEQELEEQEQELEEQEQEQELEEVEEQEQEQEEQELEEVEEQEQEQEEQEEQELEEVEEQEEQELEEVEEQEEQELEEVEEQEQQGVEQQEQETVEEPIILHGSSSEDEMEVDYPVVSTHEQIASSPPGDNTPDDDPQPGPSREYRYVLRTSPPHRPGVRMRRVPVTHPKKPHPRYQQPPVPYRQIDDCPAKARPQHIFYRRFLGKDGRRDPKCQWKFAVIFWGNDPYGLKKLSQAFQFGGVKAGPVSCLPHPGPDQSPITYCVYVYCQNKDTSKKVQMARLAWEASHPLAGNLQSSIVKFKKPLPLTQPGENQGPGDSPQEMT
# Bfl-1 A1 inh: inhibitors of the anti-apoptotic protein A1, read as caspase activation; MEF A1-2A-BIM cells, Caspase-Glo 3/7 luminescence, 3 h; percent of clofoctol response, vehicle zero; caspase activation, % (test concentration not listed); 330,000 compounds, 0.066% hits;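 active means over half of replicate activation scores above 10%, or exactly half above 10 with the replicate mean above 10; inconclusive means replicate mean below 10 yet half the replicates above 10; inactive means over half of replicates below 10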;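 further: wells of about 30 µL received 50 nL stock; many hits fall short of the cut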
# Vif A3G: HIV-1 Vif–A3G interaction blockers – biochemical, TR-FRET, GST-Vif 1-94, biotin-A3G peptide, dose response retest, primary screen (AID 1117319); TR-FRET GST-Vif / biotin-A3G peptide binding; higher % means a stronger effect; test concentration not given here; strong numbers were not always called active; one-dose inhibition, %; IC50 in µM for titrated hits; 260,000 compounds, 0.57% hits;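 active means above the screen mean plus three standard deviations and confirmed in dose response; inconclusive means results disagree or hit not tested in dose response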;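 further: Vif residues 1-94 fused to GST binding biotinylated APOBEC3G peptide 110-148; 0% = full assay without inhibitor and 100% = GST in place of GST-Vif; retest series ran down from 100 µM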
# AF4-AF9 inh: blocks AF4 peptide binding to human AF9; P42568; AlphaScreen, biotin-AF4 peptide binding to FLAG-AF9; inhibition, % at 10 µM; 350,000 compounds, 0.47% hits; AID 651704;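 active means every replicate reaching a set inhibition limit, whatever the replicate mean, cut at about 25% in these data; inconclusive means mean inhibition reaches that limit but some replicates miss it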;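 further: 0% = plate neutral control median and 100% = total signal loss; the record names both 10 and 1 µM as test concentration; the first replicate is given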
# RanGTP-Imp inh: disruptors of Ran-importin-beta complex formation – biochemical, FRET, CFP-Ran, YFP-importin-beta, homogeneous, primary screen; cell-free CFP-Ran/YFP-importin-beta FRET ratio; 300,000 compounds, 1.1% hits; inhibition, % (test concentration not listed);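 active means most replicates above 15%; inconclusive means exactly half above 15%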;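 further: 0% = DMSO wells and 100% = Ran loaded with GDP instead of GTP; wells of about 40 µL received 100 nL stock; the first replicate is given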
# Beta cell apopt: beta cell apoptosis inhibition; protection from apoptosis, % (test concentration not listed); 300,000 compounds, 0.8% hits; INS-1E cytokine-induced death, ATP luminescence, 48 h; percent of positive-control rescue, neutral wells zero;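 active means all replicates at 75% or more, or half of them and the mean; inconclusive means half reach 75% but not the mean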;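 further: 0% = cytokine-treated negative control wells and 100% = positive control rescue; higher means more ATP so stronger rescue from cytokine killing; wells of about 40 µL received 100 nL stock; the first replicate is given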
# The depositor's hits bear a star; u = inconclusive; x = not tested or not shown; & = joins results of further samples.
SMILES,Calb FLC,T cruzi repl,LANA-H2B inh,Bfl-1 A1 inh,Vif A3G,AF4-AF9 inh,RanGTP-Imp inh,Beta cell apopt
CC(=O)c1ccc2noc(-c3ccc(Cl)cc3)c2c1,-7,-3,-0.3,-0.6,2%,4.1,-2.3,-10
CCOC(=O)C1Cc2ccccc2CN1 (stereo not drawn),8,-6,15,-0.1,-1%,x,4.2,-6
Fc1ccc(-c2cc(C(F)(F)F)nc(NCc3cccs3)n2)cc1,8,-9,-6.1,0.5,-4%,x,5.7,4
COc1ccc(NC(=O)COC(=O)/C=C/C(=O)OCC(=O)Nc2ccc(OC)c(Cl)c2)cc1Cl,-13,-36,5.7,-0.5,u,x,-1.2,-11
COc1ccc(CCNC(=O)C(=O)N2CCCCC2)cc1OC,7,-8,2.7,0.4,2%,x,1.1,-6
CCOc1nc(Nc2ccc(OC)c(Cl)c2)nc(OCC)n1,-2,14,2.4,-0.5,1%,x,-4.7,8
COc1ccccc1CCC(=O)OCC(=O)Nc1cccc(S(=O)(=O)N2CCCCC2)c1,12,-8,-5.8,1.1,6%,0.9,6.8,3
CC(=O)c1c(C)oc(C)c1CSCc1ccc(C(=O)O)o1,1,-19,-1.4,0.1,32%,x,7.7,x
COc1ccc(NC(=O)CC2Nc3cc(C)c(C)cc3NC2=O)c([N+](=O)[O-])c1 (stereo not drawn),-7,-16,2.2,-0.1,10%,0.3,-2.1,19
Cc1ccc(C(=O)N/C(=C\c2cccs2)C(=O)NCCCn2ccnc2)cc1,0,-5,0.6,-0.1,x,x,5.3,2
O=C(NCc1ccccn1)C1COc2ccccc2O1 (stereo not drawn),-3,-14,-0.1,-0.6,17%,x,-1.3,-2
CCN(CC)C(=O)COc1ccc2oc(-c3ccco3)cc(=O)c2c1,-2,-8,4.1,-0.8,u,-1.8,-1.9,3
Cc1cccc(NC(=O)CCc2c(C)nn(-c3ccc(N4CCCCC4)nn3)c2C)c1,0,4,0.9,-2.2,2%,-12,-0.6,0
CCCCn1nc(NC(=O)c2cccs2)c2cc3cc(OC)ccc3nc21,16,11,-6.2,0.0,-10%&-2%,x,129*,16
COc1ccc2[nH]c(C(=O)NCCc3ccccc3)cc2c1,1,15,2.0,3.0,x,-1.0,-4.7,x
COc1cccc(NC(=O)c2c(C)nn(-c3ccccc3)c2Cl)c1,-3,2,0.1,-2.3,x,-3.9,0.2,x
CCOc1ccc(Nc2nc(N(C)c3ccccc3)nc(N)c2[N+](=O)[O-])cc1,0,0,-12,-2.1,-8%,-1.3,-0.5,2
Cc1noc(C)c1S(=O)(=O)N(CC(=O)NCCc1ccccc1)c1ccc(C(C)C)cc1,5,36,-0.7,0.2,x,-4.6,4.1,-1
Cc1ccccc1-n1ncc2c1CC(C)(C)CC2NC(=O)c1ccncc1 (stereo not drawn),-7,-9,-4.4,-0.7,x,-0.8,0.1,0
CCN(CC)C(=O)c1ccc(C(=O)Nc2ccc(F)cc2)cc1,x,x,-2.7,-7.7,x,-5.6,x,-3

# 4 compounds from above, reduced to Beta cell apopt and Vif A3G.
SMILES	Beta cell apopt	Vif A3G
CCOc1ccc(Nc2nc(N(C)c3ccccc3)nc(N)c2[N+](=O)[O-])cc1	2	-8%
Cc1noc(C)c1S(=O)(=O)N(CC(=O)NCCc1ccccc1)c1ccc(C(C)C)cc1	-1	x
Cc1ccccc1-n1ncc2c1CC(C)(C)CC2NC(=O)c1ccncc1 (stereo not drawn)	0	x
CCN(CC)C(=O)c1ccc(C(=O)Nc2ccc(F)cc2)cc1	-3	x

# Continuation:
SMILES,Calb FLC,T cruzi repl,LANA-H2B inh,Bfl-1 A1 inh,Vif A3G,AF4-AF9 inh,RanGTP-Imp inh,Beta cell apopt
Cc1ccccc1OCC(O)Cn1c(NCc2ccco2)nc2c1c(=O)[nH]c(=O)n2C (stereo not drawn),-3,14,-5.4,-0.8,0%,7.8,-1.0,-4
O=[N+]([O-])c1c(C(Cl)Cl)nn(-c2ccccc2)c1N1CCCC1,1,3,-0.8,-0.2,7%,22,-3.1,11
COc1cccc(CNC(=O)C(=O)NCCc2ccc(OC)c(OC)c2)c1,0,-1,1.7,-0.6,x,x,-1.9,-3
Cc1ccccc1OCCC(=O)NNC(=O)COc1cccc(F)c1,x,x,-3.6,0.8,x,0.1,x,-5
Cc1ccc(-c2cc3ncc(C#N)c(N)n3n2)cc1,-9,-21,-3.6,-5.9,-13%,-0.7,2.7,-2
O=C1N=C(C=c2ccc(=Cc3[nH]c(=O)[nH]c3O)cc2)C(=O)N1,-9,4,-1.5,0.0,-2%,x,0.4,3
COc1cccc2c1OCC(CN1CCN(Cc3ccccc3F)C(CCO)C1)=C2 (stereo not drawn),-5,4,-2.8,0.9,x,4.5,2.1,x
O=C(NCCN1CCOCC1)c1c(O)nc2sccn2c1=O,0,-11,x,-0.6,-10%,-1.0,1.2,-2
Cc1c(C(=O)NCC2CCCO2)oc2ccc(Br)cc12 (stereo not drawn),12,-4,x,-1.1,-14%,9.0,0.2,-4
CC(C)(C)n1nc2c(c1NC(=O)c1c(F)cccc1F)CS(=O)(=O)C2,26,-4,0.8,0.3,-3%,-2.5,4.4,-6

# The list goes on (three carried over from the part before).
SMILES,Calb FLC,T cruzi repl,LANA-H2B inh,Bfl-1 A1 inh,Vif A3G,AF4-AF9 inh,RanGTP-Imp inh,Beta cell apopt
O=C(NCCN1CCOCC1)c1c(O)nc2sccn2c1=O,0,-11,x,-0.6,-10%,-1.0,1.2,-2
Cc1c(C(=O)NCC2CCCO2)oc2ccc(Br)cc12 (stereo not drawn),12,-4,x,-1.1,-14%,9.0,0.2,-4
CC(C)(C)n1nc2c(c1NC(=O)c1c(F)cccc1F)CS(=O)(=O)C2,26,-4,0.8,0.3,-3%,-2.5,4.4,-6
CCN(CC)CC(=O)c1c[nH]c2ccc(C)cc12,0,10,-0.7,0.1,2%,x,-2.6,-5
Cc1ccccc1Nc1nc(N)nc(COC(=O)[C@@H](NC(=O)c2ccccc2Cl)C(C)C)n1,-14,15,-0.6,-0.8,5%,-0.2,-1.9,3
CC(=O)Nc1ccc(N/C=C/C(=O)c2ccc(Cl)cc2)cc1,-17,-5,4.5,0.5,17%,-3.1,-3.2,-8
COc1cc(/C=C/C(=O)OCC(=O)NCCc2ccccc2)cc(OC)c1OC,-10,-1,-23,0.3,x,1.5,-0.4,-2
Cc1nn(CCC(=O)O)c2nc(-c3cccnc3)cc(C(F)(F)F)c12,6,-3,2.1,1.2,2%,x,1.7,1
CCOC(=O)c1ccc(S(=O)(=O)NCC(c2ccc(N(C)C)cc2)c2c[nH]c3ccccc23)cc1 (stereo not drawn),4,27,1.3,0.2,-6%,7.3,0.6,-11
CCCOc1ccccc1/C=C(\C#N)C(=O)Nc1cccc(C)n1,12,-9,-5.1,0.4,-2%,6.1,1.1,-6
COc1ccc(O)c(CN2CCN(CCc3ccccc3)C(CCO)C2)c1 (stereo not drawn),-9,2,2.5,0.7,15%,0.4,4.0,2
COc1ccc(-c2nc(CS(=O)(=O)CC(=O)NCc3ccc4c(c3)OCO4)c(C)o2)cc1,-14,25,-1.2,-0.5,8%,-3.4,0.5,-4
COc1ccc(C(=O)N=C2SC3CS(=O)(=O)CC3N2Cc2ccc(F)cc2)cc1 (stereo not drawn),-2,23,1.0,0.8,x,-1.9,1.4,0

# Entries listed above printed as active in RanGTP-Imp inh:
SMILES | LANA-H2B inh | Vif A3G | AF4-AF9 inh | RanGTP-Imp inh
CCCCn1nc(NC(=O)c2cccs2)c2cc3cc(OC)ccc3nc21 | -6.2 | -10%&-2% | x | 129*

# (continued)
SMILES,Calb FLC,T cruzi repl,LANA-H2B inh,Bfl-1 A1 inh,Vif A3G,AF4-AF9 inh,RanGTP-Imp inh,Beta cell apopt
O=c1[nH]sc2ccccc12,-2,63*,x,x,-13%,-12,4.1,x
Cc1cc(C)n(Cc2ccc(Cl)nc2)n1,2,2,-1.0,0.0,11%,-0.3,3.0,3
CCOc1ccccc1N1CC(O)=C(c2nc3ccccc3s2)C1=N,-10,-12,1.6,1.0,5%,-21,-3.3,7
O=C(NCCCc1ccc(F)cc1)C1CCC(=O)N(CCCN2CCCC2=O)C1 (stereo not drawn),-10,-17,3.0,1.1,x,-1.6,2.7,-4
Cc1ccc(C)c(OCCC(=O)OCC(=O)NCc2ccccc2)c1,-5,-5,0.7,1.2,-3%,0.1,-8.3,-8
CCCCNC(=O)c1ccc2c(c1)N(C)C(=O)c1ccccc1S2,-3,-9,-1.9,-0.2,2%,-1.2,-2.0,7
CC(=O)Nc1ccc(S(=O)(=O)n2cnc3ccccc32)cc1,-3,-5,3.8,0.3,3%,x,5.2,-8
CCCCCCNC(=O)C(=O)NCCc1ccc(Cl)cc1,31,-23,6.5,0.1,u,2.4,2.1,-3
CCn1c(SCC(=O)Nc2sc3c(c2C#N)CCCC3)nnc1-c1ccncc1,31,17,2.3,1.4,-2%,x,2.4,4
CCn1c(SCC(=O)NCc2ccccc2)nnc1C(CO)NC(=O)c1ccccc1 (stereo not drawn),5,-16,-1.5,0.0,x,-0.5,1.7,6
CN1C(=O)/C(=N/OC(=O)c2ccccc2)c2ccccc21,-6,-12,-0.1,-0.2,5%,x,2.3,-11
O=C(O)c1cccc(S(=O)(=O)Nc2cccc(S(=O)(=O)N3CCCC3)c2)c1,x,x,-11,1.4,-2%,-1.4,x,-2
COC(=O)c1sccc1NC(=S)N1CCN(C)CC1,-2,2,-0.8,1.4,x,-4.7,7.4,-7
COc1ccc2[nH]cc(C(=O)CN3CCN(C4CCCCC4)CC3)c2c1,-1,3,0.1,-0.2,-4%,x,3.3,-10
Clc1ccc(OCc2nnc3n2CCCCC3)c(Cl)c1,10,-6,2.9,0.3,32%,0.6,7.1,-6
CCOc1ccc(NC(=S)Nc2cccnc2)cc1,-27,-11,3.3,0.4,x,-0.5,-7.3,-3
NC(=O)c1ccc(NC(=O)COc2ccc(-n3cnnn3)cc2)cc1,x,x,1.0,0.2,-16%,3.7,x,-5
CC1=CC(C)C(/C=N/n2cnnc2)C(C)C1 (stereo not drawn),-4,1,3.1,0.6,-2%,x,4.7,x

# In the list so far, these have a nitro group on carbon.
SMILES,Calb FLC,T cruzi repl,LANA-H2B inh,Bfl-1 A1 inh,Vif A3G,AF4-AF9 inh,RanGTP-Imp inh,Beta cell apopt
COc1ccc(NC(=O)CC2Nc3cc(C)c(C)cc3NC2=O)c([N+](=O)[O-])c1 (stereo not drawn),-7,-16,2.2,-0.1,10%,0.3,-2.1,19
CCOc1ccc(Nc2nc(N(C)c3ccccc3)nc(N)c2[N+](=O)[O-])cc1,0,0,-12,-2.1,-8%,-1.3,-0.5,2
O=[N+]([O-])c1c(C(Cl)Cl)nn(-c2ccccc2)c1N1CCCC1,1,3,-0.8,-0.2,7%,22,-3.1,11
